# Screening results deposited in PubChem by Broad Institute.
# Yeast UUG start = modulators of yeast start codon fidelity, primary screen, whole organism, S. cerevisiae, single point, plate reader | S. cerevisiae UUG-firefly luciferase reporter, luminescence/redox ratio | activity score, % at 18.7 µM | actives 0.13% (n = 350,000) | AID 602363, 2012;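 active = replicate mean at a twofold rise or more, about +100% in these data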;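 note: firefly luciferase made from a UUG start codon reports start codon fidelity; reporter light over untreated wells divided by growth signal over untreated wells; some hits fall short of that in this replicate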
# Active calls of the source: *. This is a subset; count on the stated rates, not on these rows.
Compound	Yeast UUG start
C[C@@H]1CN([C@H](C)CO)C(=O)c2cccc(NC(=O)C3CCCCC3)c2O[C@@H]1CN(C)C(=O)Nc1ccccc1	25.3
CCC(=O)N1C[C@@H](C)[C@@H](OC)CN(C)C(=O)c2ccc(NC(=O)Nc3ccccc3)cc2OC[C@H]1C	46.8
CC(C)NC(=O)N1CCCCN2[C@H](C1)[C@@H](c1ccc(C#Cc3ccccc3)cc1)[C@@H]2CO	-5.9
COc1cccc(-c2ccc([C@@H]3[C@@H](CO)N4CCCCN(CC5CCOCC5)C[C@@H]34)cc2)c1	-6.0
C[C@H]1CN([C@@H](C)CO)C(=O)Cc2cc(NC(=O)CCCCCC(=O)Nc3ccccc3N)ccc2O[C@@H]1CN(C)C	6.6
COCC#Cc1ccc([C@H]2[C@@H](CO)N3CCCCN(C(=O)COC)C[C@@H]23)cc1	11.7
C[C@H]1CN([C@@H](C)CO)C(=O)c2cccc(NC(=O)NC3CCCCC3)c2O[C@@H]1CN(C)Cc1ccc(-c2ccccc2)cc1	-7.6
CO[C@@H]1CN(C)C(=O)c2ccc(NC(=O)C3CC3)cc2OC[C@@H](C)N(CC2CC2)C[C@H]1C	-1.9
COc1ccc(NC(=O)N2CC[C@@H]3[C@H]2c2cc(-c4cccc(F)c4)ccc2N(C)[C@H]3CO)cc1	-13.6
CO[C@@H]1CN(C)C(=O)c2cc(NC(=O)C3CC3)ccc2OC[C@@H](C)N(C)C[C@@H]1C	-4.1
COCCNC(=O)C[C@@H]1CC[C@@H]2[C@@H](COc3ccc(NS(=O)(=O)c4ccc(Cl)cc4)cc3C(=O)N2C)O1	3.5
CO[C@@H]1CN(C)C(=O)c2cc(NS(C)(=O)=O)ccc2OC[C@@H](C)N(CC2CC2)C[C@@H]1C	-10.0
CCN(C[C@@H]1[C@H](c2ccccc2)[C@@H](CO)N1C(=O)COC)S(C)(=O)=O	-16.0
O=C(C[C@H]1C[C@H]2c3cc(NC(=O)NC4CCCC4)ccc3O[C@H]2[C@H](CO)O1)NCc1ccc(-c2ccccc2)cc1	-9.8
CCNC(=O)C[C@H]1CC[C@@H]2[C@H](COC[C@@H](O)CN2C(=O)C2CCCC2)O1	-9.9
CC(C)NC(=O)NC[C@H]1[C@@H](c2ccccc2)[C@@H](CO)N1C(=O)c1ccccc1	-5.2
CN(C)C(=O)c1ccc(-c2ccc3c(c2)[C@H]2[C@H](CCN2C(=O)Cc2ccccn2)[C@@H](CO)N3C)cc1	2.1
COc1cccc(S(=O)(=O)N2CC[C@@H]3[C@H]2c2cc(C#Cc4ccccc4)ccc2N[C@@H]3CO)c1	-7.9
O=C(c1ccccn1)N1CC[C@@H]2[C@H]1c1cc(-c3cccc(F)c3)ccc1N[C@@H]2CO	0.5
N#Cc1ccc(-c2ccc3c(c2)[C@@H]2[C@@H](CCN2C(=O)C2CC2)[C@H](CO)N3)cc1	5.0

# Compounds shown so far that contain nitrogen in an aromatic ring, in the order listed:
Compound	Yeast UUG start
CN(C)C(=O)c1ccc(-c2ccc3c(c2)[C@H]2[C@H](CCN2C(=O)Cc2ccccn2)[C@@H](CO)N3C)cc1	2.1
O=C(c1ccccn1)N1CC[C@@H]2[C@H]1c1cc(-c3cccc(F)c3)ccc1N[C@@H]2CO	0.5

# (next part)
Compound	Yeast UUG start
O=C(C1CCCC1)N1[C@@H](CO)[C@@H]2c3ccccc3N(S(=O)(=O)c3ccccc3)C[C@@H]21	13.9
CCCNC(=O)Nc1ccc2c(c1)OC[C@@H](C)N(C(=O)C1CC1)C[C@H](C)[C@H](OC)CN(C)C2=O	1.9
CCC(=O)N1CC[C@H]2[C@H](CO)Nc3ccc(-c4ccccc4)cc3[C@H]21	-2.4
C[C@@H]1CN([C@@H](C)CO)C(=O)Cc2cc(NC(=O)CCN3CCOCC3)ccc2O[C@@H]1CN(C)C	6.3
Cc1ccc(S(=O)(=O)N(C)C[C@H]2OCc3ccccc3-c3ccccc3C(=O)N([C@@H](C)CO)C[C@H]2C)cc1	8.9
CC=Cc1ccc2n(c1=O)C[C@@H]1[C@@H](CO)[C@H](C(=O)N3CCCCC3)N(CC3CC3)[C@H]21 (mixture of isomers)	17.3
Cc1noc(C)c1NC(=O)N(C)C[C@@H]1Oc2c(NC(=O)c3cnccn3)cccc2C(=O)N([C@@H](C)CO)C[C@H]1C	-1.2
C[C@H]1CN([C@@H](C)CO)C(=O)c2cc(NC(=O)c3ccncc3)ccc2O[C@@H]1CN(C)S(=O)(=O)c1cccs1	-8.2
CC(C)NC(=O)N(C)C[C@@H]1Oc2ccc(NC(=O)CCC(F)(F)F)cc2CC(=O)N([C@H](C)CO)C[C@@H]1C	3.9
O=C(CN1CCOCC1)N1CCCCN2[C@H](C1)[C@@H](c1ccc(Br)cc1)[C@@H]2CO	-11.8
O=C(C1CCOCC1)N1C[C@H]2[C@@H](c3ccccc31)[C@@H](CO)N2Cc1ccccc1F	9.9
C[C@@H]1CN([C@@H](C)CO)C(=O)c2cc(NS(=O)(=O)c3ccc(Cl)cc3)ccc2O[C@H]1CN(C)Cc1ccc2c(c1)OCO2	6.9
C[C@@H]1CN([C@@H](C)CO)C(=O)c2cccc(NS(C)(=O)=O)c2O[C@H]1CN(C)C(=O)Nc1ccc(C(F)(F)F)cc1	-0.6
O=C(Nc1ccc(F)cc1)N1C[C@@H]2[C@H](c3ccccc31)[C@H](CO)N2C(=O)c1ccc(F)cc1	48.8
CC(=O)N1[C@H](CO)[C@@H](c2ccc(C3=CCCC3)cc2)[C@@H]1CNC(=O)CN(C)C	-6.9
C[C@H]1CN([C@@H](C)CO)C(=O)c2cc(NC(=O)CCN3CCOCC3)ccc2O[C@@H]1CN(C)Cc1ccc(C(=O)O)cc1	7.8
CCOC(=O)N(C)C[C@@H]1OCc2ccccc2-c2ccccc2C(=O)N([C@H](C)CO)C[C@H]1C	3.9
CO[C@@H]1CN(C)C(=O)c2cc(NC(C)=O)ccc2OC[C@H](C)N(C(=O)C2CCCCC2)C[C@@H]1C	1.1
O=C(c1ccccn1)N1C[C@@H]2[C@H](c3ccccc31)[C@H](CO)N2C(=O)c1ccccn1	-7.5
Cc1ccccc1-c1ccc([C@H]2[C@@H](CO)N3CCCCN(CC4CC4)C[C@@H]23)cc1	-5.3

# Among those listed so far, these have a Cl atom.
Compound	Yeast UUG start
COCCNC(=O)C[C@@H]1CC[C@@H]2[C@@H](COc3ccc(NS(=O)(=O)c4ccc(Cl)cc4)cc3C(=O)N2C)O1	3.5
C[C@@H]1CN([C@@H](C)CO)C(=O)c2cc(NS(=O)(=O)c3ccc(Cl)cc3)ccc2O[C@H]1CN(C)Cc1ccc2c(c1)OCO2	6.9

# More structures.
Compound	Yeast UUG start
C[C@@H]1CN([C@@H](C)CO)C(=O)c2cc(NC(=O)CCN3CCOCC3)ccc2O[C@H]1CN(C)C(=O)NC1CCCCC1	6.1
CCCNC(=O)N1[C@@H](CO)[C@@H](c2ccc(C3=CCCC3)cc2)[C@@H]1CNC(C)=O	-5.4
C[C@@H]1CN([C@@H](C)CO)C(=O)Cc2cc(NC(=O)c3ccncc3)ccc2O[C@@H]1CN(C)CC1CCCCC1	-13.9
COCC(=O)NC[C@H]1[C@H](c2ccc(-c3ccccc3)cc2)[C@@H](CO)N1C(C)=O	7.5
CCC(=O)N1C[C@@H](C)[C@H](OC)CN(C)C(=O)c2cc(NC(=O)COC)ccc2OC[C@H]1C	-7.1
C[C@@H]1CN([C@H](C)CO)C(=O)c2cccc(NS(=O)(=O)c3cn(C)cn3)c2O[C@@H]1CN(C)Cc1ccncc1	-10.9
COCC(=O)Nc1ccc2c(c1)OC[C@@H](C)N(C(=O)c1ccccc1F)C[C@@H](C)[C@@H](OC)CN(C)C2=O	68.1
C[C@@H]1CN([C@H](C)CO)C(=O)c2cc(NC(=O)C3CC3)ccc2O[C@H]1CN(C)Cc1ccccc1	-7.1
COc1cccc(S(=O)(=O)Nc2ccc3c(c2)[C@H]2C[C@H](CC(=O)N(C)C)O[C@@H](CO)[C@H]2O3)c1	3.1
O=C(CN1CCOCC1)N1CCCCN2[C@H](CO)[C@H](c3ccc(-c4ccccc4F)cc3)[C@H]2C1	-14.6
C[C@H]1CN([C@@H](C)CO)C(=O)c2cccc(NC(=O)c3ccncc3)c2O[C@@H]1CN(C)C(=O)Nc1ccc2c(c1)OCO2	-19.5
C[C@H](CO)N1C[C@H](C)[C@@H](CN(C)C)Oc2c(NC(=O)C3CCOCC3)cccc2C1=O	9.9
C[C@@H]1CN([C@@H](C)CO)C(=O)CCCn2nncc2CO[C@H]1CN(C)C(=O)Nc1ccc2c(c1)OCCO2	-40.7
COc1ccc(C(=O)N2C[C@@H]3[C@H](c4ccccc42)[C@@H](CO)N3C(=O)c2cccc(F)c2)cc1	-8.4
CCC(=O)Nc1ccc2c(c1)C(=O)N(C)C[C@@H](OC)[C@@H](C)CN[C@H](C)CO2	5.5
CC(C)NC(=O)Nc1ccc2c(c1)CC(=O)N([C@@H](C)CO)C[C@@H](C)[C@H](CN(C)Cc1ccc(Oc3ccccc3)cc1)O2	7.3
COc1cccc(-c2ccc([C@@H]3[C@@H](CO)N4CCCCN(C(=O)c5ccc(F)cc5)C[C@@H]34)cc2)c1	32.2
CCCNC(=O)N1C[C@H]2[C@@H](c3ccccc31)[C@H](CO)N2C(=O)NC(C)C	-11.6
CC(=O)N1[C@@H](CO)[C@H](c2ccccc2)[C@@H]1CNC(=O)CN1CCOCC1	-5.0
CN(C)CCCNC(=O)C[C@@H]1CC[C@H]2[C@@H](COc3ccc(NC(=O)c4ccccc4F)cc3C(=O)N2C)O1	-7.1
Cn1cnc(S(=O)(=O)N2CCCCN3[C@H](CO)[C@H](c4ccc(C#CC5CCCC5)cc4)[C@H]3C2)c1	2.7
C[C@H](CO)N1C[C@H](C)[C@@H](CN(C)Cc2ccncc2)Oc2ccc(NS(=O)(=O)c3ccccc3)cc2CC1=O	-8.6
O=S(=O)(Cc1ccccc1)N1CCCCN2[C@H](C1)[C@H](c1ccc(-c3cncnc3)cc1)[C@@H]2CO	4.6
CCS(=O)(=O)N1CCCCN2[C@H](C1)[C@H](c1ccc(-c3cccc(C#N)c3)cc1)[C@@H]2CO	13.6
COc1ccc(CN(C)C[C@@H]2Oc3c(NC(=O)c4cc(C)nn4C)cccc3C(=O)N([C@H](C)CO)C[C@H]2C)cc1	0.2
CC(C)NC(=O)N1[C@H](CO)[C@H]2c3ccccc3N(C)C[C@H]21	-6.4
Cc1noc(C)c1NC(=O)Nc1ccc2c(c1)C(=O)N([C@@H](C)CO)C[C@H](C)[C@@H](CN(C)Cc1ccc(C(=O)O)cc1)O2	-2.3
O=C(C[C@H]1CC[C@H]2[C@@H](COC[C@@H](O)CN2C(=O)Nc2ccccc2)O1)NCCCN1CCOCC1	-11.3
CCCNC(=O)N1[C@H](CNC(C)=O)[C@@H](c2ccc(C3=CCCC3)cc2)[C@@H]1CO	23.9
CCCNC(=O)C[C@H]1C[C@@H]2c3cc(NC(=O)C4CCC4)ccc3O[C@@H]2[C@@H](CO)O1	6.4
COCC(=O)N1[C@H](CO)[C@@H](c2ccccc2)[C@H]1CN(C)C(=O)c1ccncc1	-10.9
C/C=C/c1ccc([C@@H]2[C@H](CO)N[C@H]2CN(CC(C)C)C(=O)c2ccccn2)cc1	-17.2
CN1C(=O)c2cc(NC(=O)c3ccccc3Cl)ccc2OC[C@@H]2O[C@@H](CC(=O)O)CC[C@H]21	-13.1
CO[C@H]1CN(C)C(=O)c2cc(NC(=O)Nc3ccc4c(c3)OCO4)ccc2OC[C@H](C)NC[C@@H]1C	-10.5
OC[C@H]1[C@H](c2ccc(-c3cccnc3)cc2)[C@H]2CN(CC3CCOCC3)CCCCN21	-13.6
CCC(=O)NC[C@H]1[C@H](c2ccccc2)[C@H](CO)N1C(=O)C1CC1	-1.1
C[C@H](CO)N1C[C@H](C)[C@@H](CN(C)Cc2ccc(Oc3ccccc3)cc2)Oc2ccc(NS(=O)(=O)c3cccs3)cc2C1=O	12.8
CCCNC(=O)Nc1ccc2c(c1)C(=O)N(C)[C@H]1CC[C@H](CC(=O)NCc3ccccc3)O[C@@H]1CO2	-0.1
CN1c2ccc(-c3ccccc3F)cc2[C@H]2[C@H](CCN2C(=O)Cc2ccccn2)[C@H]1CO	7.6
CC(C)NC(=O)N(C)C[C@H]1Oc2ccc(NS(=O)(=O)c3ccc(Cl)cc3)cc2C(=O)N([C@H](C)CO)C[C@H]1C	4.6
CO[C@@H]1CN(C)C(=O)c2cc(NC(=O)Cc3ccccc3)ccc2OC[C@H](C)N(C(=O)c2ccccc2F)C[C@@H]1C	9.2
CN(C)CC#Cc1ccc([C@H]2[C@H]3CN(C(=O)c4ccc5c(c4)OCO5)CCCCN3[C@H]2CO)cc1	3.2
O=C(C[C@@H]1CC[C@@H]2[C@H](COC[C@@H](O)CN2C(=O)Cc2ccccc2)O1)NC1CCC1	-7.7
O=C(Nc1ccccc1)N1CCCCN2[C@H](CO)[C@@H](c3ccc(-c4ccncc4)cc3)[C@@H]2C1	8.9
O=C(C[C@@H]1CC[C@H]2[C@@H](COC[C@H](O)CN2C(=O)c2ccccn2)O1)N1CCN(c2ccccc2)CC1	4.7
O=C(C[C@@H]1CC[C@@H]2[C@H](COC[C@@H](O)CN2Cc2ccc(F)cc2)O1)NCc1ccccc1Cl	-5.9
C[C@H]1CN([C@@H](C)CO)C(=O)c2cccc(NS(=O)(=O)c3cn(C)cn3)c2O[C@@H]1CN(C)C	-5.2
COc1ccc(NC(=O)Nc2ccc3c(c2)CC(=O)N([C@H](C)CO)C[C@@H](C)[C@H](CN(C)C(=O)Nc2ccc(F)cc2)O3)cc1	7.4
O=C(Nc1ccccc1F)N1C[C@H]2[C@@H](c3ccccc31)[C@H](CO)N2C(=O)C1CC1	-14.6
